VDR inhibitor: blocks the human vitamin D receptor | 0.93% of 400,000 active | AID 504847 | VDR-SRC2-3 peptide fluorescence polarization, 2 h | P11473 | Potency, µM, without a hit: max response, negative = inhibition, most hits filed as inhibitors; active = well fitted inhibition curve with a large enough effect; inconclusive = small, poorly fitted or top-dose-only effect, or another doubt; inactive = no such curve, though single readings can be large or run the other way; note: series mostly up to about 120 µM
Target sequence (P11473 whole entry, looked up): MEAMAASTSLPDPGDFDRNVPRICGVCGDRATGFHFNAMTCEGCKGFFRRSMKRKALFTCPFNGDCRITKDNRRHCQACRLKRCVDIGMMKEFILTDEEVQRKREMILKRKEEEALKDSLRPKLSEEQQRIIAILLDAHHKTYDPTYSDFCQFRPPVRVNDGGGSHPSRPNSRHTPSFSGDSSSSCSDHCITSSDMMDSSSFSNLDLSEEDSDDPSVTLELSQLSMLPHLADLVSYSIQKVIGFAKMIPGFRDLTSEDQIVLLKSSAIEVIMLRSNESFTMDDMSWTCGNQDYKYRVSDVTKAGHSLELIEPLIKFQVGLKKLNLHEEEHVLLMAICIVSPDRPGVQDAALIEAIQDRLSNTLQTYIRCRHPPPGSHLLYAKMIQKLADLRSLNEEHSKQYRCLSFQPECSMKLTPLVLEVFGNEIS
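Compounds are added to VDR with labelled SRC2-3 coactivator peptide and held 2 h at room temperature. Inhibition of the VDR–peptide interaction is then read as a change in fluorescence polarization.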
* = called active by the depositor; ? = inconclusive; & = joins results of further samples; [ ] = another dose, or the depositor's remark. % is set by controls: 0 for no effect and ±100 for the full control effect; potency is the fitted concentration of half-maximal effect. Some of the compounds tested, so the mix of outcomes need not match the whole.

SMILES	VDR inhibitor
CC(=O)Nc1ccc(NC(=S)NC(=O)c2oc3ccccc3c2C)cc1	-13.7%
O=C(CSc1nnc(-c2ccc3c(c2)OCCO3)o1)N1CCCC1	5.9%
CCCC(=O)Nc1sc2c(c1C#N)CCCCC2	-4.9%
Fc1ccc(CNC(=S)Nc2ccc(OC(F)F)cc2)cc1	-16.9%
CCOc1ccc(NC(=O)C2CC3CCC2C3)cc1 (centres undefined)	6.7%
Cn1c(=O)c2c(nc(CN3CCN(C(=O)c4ccco4)CC3)n2CC(N)=O)n(C)c1=O	-10.7%
N#Cc1c(-c2ccccc2)cc(-c2ccccc2)nc1SCc1nnc(-c2ccccc2)o1	1.6%
Cc1cnc(NC(=O)CSc2nnc(Cc3ccccc3)o2)s1	-4.5%
COc1ccc(C2CC(=O)N(CC(=O)NCC3CCCO3)c3ccccc3S2)cc1 (centres undefined)	-1.6%
O=C(NC12CC3CC(CC(C3)C1)C2)C1CCCN1C(=O)Nc1ccccc1 (centres undefined)	-0.8%
COc1cc2c3c(c1)c(N=NC(N)=S)c(O)n3C(C)(C)C=C2C	1.7%
CCCNC(=O)COC(=O)c1cccnc1Nc1ccccc1F	-1.4%
CNc1ccc(/C=C/C(=O)c2ccc3c(c2)OCCO3)cc1[N+](=O)[O-]	-23.4%
Cc1ccccc1CCN(C(=O)c1csnn1)C(C(=O)NC1CCCC1)c1ccco1 (centres undefined)	-6.9%
O=c1cc(CO)oc(C(Nc2ccccn2)c2ccccc2F)c1O (centres undefined)	?
CCc1nnc(SCc2nc(-c3ccccc3F)oc2C)c2cc3sccc3n12	0.0%
CC(C)C[C@H](NC(=O)Nc1ccc2c(c1)OCCO2)C(=O)O	10.4%
CSc1nc(-c2ccc(Cl)cc2)nn1S(=O)(=O)c1ccccc1	6.7%
CCc1ccc(C2C3=C(CC(C)(C)CC3=O)OC3=C2C(=O)CC(C)(C)C3)cc1	20.5%
CCn1c(=S)[nH]c2ccccc21	-4.5%
CC(CN1CCCCC1)OC(=O)c1ccc(Cl)cc1 (centres undefined)	-2.2%
COCCNC(=O)c1ccc(NS(C)(=O)=O)cc1	12.0%
CCc1nc(C)cn1S(=O)(=O)c1ccc([N+](=O)[O-])cc1	2.7%
Cc1ccc(N2C(=O)c3ccc(C(=O)N4CCN(c5ccccc5F)CC4)cc3C2=O)cc1	17.7%
CC(=O)Nc1cccc(C(=O)OCC(=O)N2CCN(C(=O)COC(=O)c3cccc(NC(C)=O)c3)CC2)c1	-11.7%
O=C(CSc1ncc(-c2ccc(Cl)cc2)[nH]1)Nc1ccccc1F	-23.5%
CSc1cccc(NC(=O)c2ccco2)c1	9.9%
O=C(CCC1CCCCC1)N1CCN(Cc2ccc3c(c2)OCO3)CC1	5.9%
CC1NC(=O)C(N)CNC(=O)C(C2CCN=C(N)N2)NC(=O)/C(=C/NC(N)=O)NC(=O)C(CNC(=O)CC(N)CCCN)NC1=O (centres undefined)	-5.3%
O=C(NCc1ccco1)c1cc2nc(-c3ccc4c(c3)OCO4)cc(C(F)(F)F)n2n1	-11.2%
CCc1c(C)sc(NC(=S)Nc2nc(C)cc(C)n2)c1C(=O)OC	-7.2%
CSCC[C@H](NC(=O)C1CCN(S(=O)(=O)c2ccccc2)CC1)C(=O)NC1CC1	-7.1%
CC(C)N1CC(C(=O)Nc2ccc(F)c(Cl)c2)CC1=O (centres undefined)	-6.2%
C/C(=C\CNc1ncnc2nc[nH]c12)CO	-5.2%
OCCNc1nc(Nc2ccc(O)cc2)nc2ccccc12	16.1%
O=C(CCCC(=O)N(CC(=O)NC1CCCC1)C1CCCC1)Nc1ccccn1	3.7%
CC(=O)NC(CSC(CC(=O)c1ccco1)c1ccc(C)cc1)C(=O)O (centres undefined)	?
CC(C)(C)n1nnnc1C(c1cc2cc3c(cc2[nH]c1=O)OCO3)N1CCN(c2ccccc2)CC1 (centres undefined)	-3.7%
CCOc1ccccc1N1CCN(C(=O)NCc2ccc(F)cc2)CC1	-3.0%
CC1CN(S(=O)(=O)c2ccc(C(=O)Nc3nc(-c4cc5ccccc5o4)cs3)cc2)CC(C)O1 (centres undefined)	-7.4%
CCCn1c(N2CCN(C(=O)NCc3ccccc3)CC2)nc2ccccc21	30.2%[activator]
COc1cccc(/C=C/C(=O)Nc2cc(S(=O)(=O)N3CCOCC3)ccc2OC)c1	-14.2%
CCOC(=O)c1c(C)n(C)c2ccc(OC(=O)c3ccco3)cc12	1.8%
COc1ccc(C(=O)CN2C(=O)COc3ccccc32)cc1	-0.3%
CCc1cccc(NC(=S)N(CCOC)C(C)c2ccco2)c1 (centres undefined)	-22.0%
O=C(N/N=C/c1cccnc1)c1cccc(F)c1	-15.2%
Cc1ccc2c(c1)nc(SCC(O)c1ccc(Br)cc1)n2C (centres undefined)	-3.8%
CCc1ccc(NC(=O)NCCN2CCc3ccccc3C2)cc1	1.5%
O=C(Nc1ccc(S(=O)(=O)N2CCOCC2)cc1)c1ccc(Cl)c([N+](=O)[O-])c1	-17.4%
N#C/C(=N\Nc1cccc2ccccc12)c1nnc2n1CCCCC2	4.6%
Cc1ccc[n+](/C(C(=S)NCc2ccco2)=C(/[O-])c2ccccc2Cl)c1	5.6%
Cc1c2cnn(CC(=O)NC3CCCC3)c(=O)c2c(C)n1Cc1ccccc1	-23.6%
COc1cc(-c2cc(OC)c3c(C)oc(C)c3c(=O)c2)ccc1O	-4.4%
Cc1ccc(C)c(NC(=O)C(=O)NCCc2c[nH]c3ccccc23)c1	-9.5%
COc1ccc(NCc2nnc(SCC(=O)Nc3cc(C)cc(C)c3)o2)cc1	-20.4%
COc1ccc(NC(=O)[C@@H]2CCCN2S(=O)(=O)c2ccc(Cl)cc2)cc1	-4.6%
Cc1ccc(C)c(OCCSc2nnc(-c3cccnc3)n2N)c1	-10.0%
Cc1ccc(S(=O)(=O)N2CCCCC2)cc1NC(=O)[C@@H]1CCCN1C(=O)c1cccs1	-4.6%
CC(C)(C)c1ccc(C(=O)C2CCCN(C(=O)C3CCOCC3)C2)cc1 (centres undefined)	2.6%
Cc1ccccc1Nc1scc(-c2ccc(Cl)cc2)[n+]1-c1ccccc1C	6.4%

5 compounds already listed, ordered by the value under VDR inhibitor, smallest number first:
SMILES	VDR inhibitor
Cc1ccc(C)c(OCCSc2nnc(-c3cccnc3)n2N)c1	-10.0%
Cc1ccc(S(=O)(=O)N2CCCCC2)cc1NC(=O)[C@@H]1CCCN1C(=O)c1cccs1	-4.6%
CC(C)(C)c1ccc(C(=O)C2CCCN(C(=O)C3CCOCC3)C2)cc1 (centres undefined)	2.6%
Cc1ccc[n+](/C(C(=S)NCc2ccco2)=C(/[O-])c2ccccc2Cl)c1	5.6%
Cc1ccccc1Nc1scc(-c2ccc(Cl)cc2)[n+]1-c1ccccc1C	6.4%

Other records follow:
SMILES	VDR inhibitor
CCCCN(CCCC)NC(=O)c1ccccc1	-4.9%
Cc1ccc2nc3c(cc(C(=O)NCC4CCCO4)c(=N)n3C3CCCC3)c(=O)n2c1 (centres undefined)	13.1%
CC1Cc2ccccc2N1C(=O)c1cc2c(=O)n3ccccc3nc2n1C (centres undefined)	26.2%
CC(C)(C)OC(=O)C[C@H]1C/C=C\C[C@H](CC(=O)N(CCO)Cc2ccccc2)C(=O)NC[C@H](c2ccccc2)OC1=O	6.0%
COc1cccc(C(=O)C(=O)c2cccc(OC)c2OC)c1OC	-17.7%
COc1cc(Nc2ccc(C(=O)O)cc2[N+](=O)[O-])cc(OC)c1	-5.9%
CC(=O)c1sc(NC(=O)c2ccc(F)c(S(=O)(=O)N3CCOCC3)c2)nc1C	-14.6%
C=C(C)CSc1nnc(CCNC(=O)OC(C)(C)C)o1	-18.1%
COc1ccc(C(C)=O)cc1COC(=O)c1cnc(C)cn1	0.5%
N#CCCn1c(=O)c(-c2ccccc2)nc2cnc(OCc3ccccc3)nc21	-12.0%
O=C(Nc1cc2c(cc1Br)OCCCO2)c1ccccc1	-2.3%
Nn1c(=O)[nH]c2ccccc2c1=O	-1.7%
Cc1ccc(-n2nnnc2SCC(=O)NC2CC2)cc1C	-7.4%
CCCCOc1ccc(C2C(C(=O)c3ccc(C)o3)=C(O)C(=O)N2CC2CCCO2)cc1 (centres undefined)	-10.0%
COCCN1C=C2C(=O)C(C)(OC(=O)C3CCCC3)C(=O)C=C2C=C1c1ccsc1 (centres undefined)	-1.9%
Cc1cccc(C=CC(=O)c2ccccc2)c1	44.7µM*
CS(=O)(=O)N(CC(=O)NCc1ccc(Cl)cc1)C1CCCCC1	-7.0%
O=C(CSc1ncc2c(n1)-c1ccccc1N(Cc1ccc(Cl)cc1)S2(=O)=O)c1ccc(Cl)cc1	2.4%
Cc1ccc2nc(SCC(=O)NCc3ccco3)[nH]c2c1	15.4%
CSc1nsc(SCC(=O)Nc2ccc(NC(C)=O)cc2)n1	-14.4%
CCN(CCCNC(=O)Cn1ncc2c([nH]c3ccccc32)c1=O)Cc1ccccc1	2.9%
COc1ccc([N+](=O)[O-])cc1NCc1ccccc1C	-11.5%
CC(C)(C)OC(=O)NC1CCN(S(=O)(=O)c2ccc3c(c2)OCCO3)CC1	-6.1%
CCCS(=O)(=O)Nc1cccc(-c2nc3cccnc3s2)c1	-1.2%
COc1ccc(NC(=O)C(C)n2nc(-c3ccc(C)c(C)c3)ccc2=O)cc1OC (centres undefined)	6.3%
CN(C(=O)c1cnc(N2CCOCC2)c2ccccc12)c1ccccc1F	7.0%
CC(C)(C)c1cc(-c2ccccc2)n[nH]1	9.9%
Cc1nn(-c2ccccc2)c2c1C(c1ccc([N+](=O)[O-])cc1)C(C#N)=C(N)O2 (centres undefined)	?
CC(=O)c1cccc(-n2c(=O)c3c4c(sc3n(Cc3cccc(C)c3)c2=O)CN(C(C)=O)CC4)c1	-11.6%
O=C(NCCCc1ccccc1)C1CCC(=O)N(Cc2ccc(Cl)cc2)C1 (centres undefined)	9.9%
COc1ccc(NC(=O)CN(C)C(=O)c2ccc(C)s2)cc1	21.4%
O=C(C1=C[C@H](C2CC2)C[C@H](OCc2ccc(CO)cc2)O1)N1CCN(Cc2ccc3c(c2)OCO3)CC1	-8.7%
Cc1ccc(NC(=O)Nc2ccccc2CC[N+](=O)[O-])cc1	3.9%
O=C(Cn1ncc2c(Cl)cccc21)NCc1cccc(F)c1	1.0%
CC(C)(C)CC(C)(C)N=C1Nc2ccccc2NC12C[C@H]1CCC(=O)N3CC[C@@H](C2)[C@@H]13 (some centres undefined)	-3.9%
COc1cc(C(=O)OCC(=O)N(C)c2ccccc2)cc(OC)c1OC	10.5%
O=C(NN=C1CCCC1)c1cc(Br)ccc1O	-8.4%
CC(C)(C)Nc1oc(-c2ccccc2)nc1-c1ccc(C(F)(F)F)cc1	10.2%
O=C(Nc1nc(-c2ccccn2)cs1)c1cc(Cl)ccc1[N+](=O)[O-]	79.4µM*
CCCCCCCCCCCCCCCCn1cc[n+](C)c1	10.9%&12.1%

2 consecutive records out of the list so far, for reference:
SMILES	VDR inhibitor
CC(=O)Nc1ccc(NC(=S)NC(=O)c2oc3ccccc3c2C)cc1	-13.7%
O=C(CSc1nnc(-c2ccc3c(c2)OCCO3)o1)N1CCCC1	5.9%

New compounds follow.
SMILES	VDR inhibitor
O=C(COC(=O)CNC(=O)c1cccs1)Nc1ccc(C(F)(F)F)cc1[N+](=O)[O-]	6.1%
CCS(=O)(=O)N1CCN(c2cnn(-c3ccccc3)c(=O)c2Cl)CC1	10.7%
Cc1ccc(NC(=O)c2ccc([N+](=O)[O-])s2)cc1S(=O)(=O)N1CCOCC1	-9.2%
Cc1ccc(-n2c3nc(=O)n(C)c(=O)c-3cc3c(Cl)cccc32)c(C)c1	-9.2%
Cc1ccc(C)c(OCCC(=O)NCCc2ccc(S(N)(=O)=O)cc2)c1	16.1%
CCC(C(=O)Nc1cc(F)ccc1F)n1nc(C)c2c(C)n(-c3ccc(C)cc3)nc2c1=O (centres undefined)	-4.2%&2.5%
COC(=O)c1ccccc1NC(=O)C(C)c1ccc([N+](=O)[O-])cc1 (centres undefined)	-6.8%
O=C(CCc1ccccc1F)N1CCN(c2ccc(C(F)(F)F)cn2)CC1	-1.5%
Cc1ccc(-n2nnnc2SCC(=O)c2cc(C)n(CC3CCCO3)c2C)cc1 (centres undefined)	2.6%
O=S(=O)(NCC1CN(S(=O)(=O)c2ccc3c(c2)OCCO3)C1)c1c(F)cccc1F	20.3%
O=C(Nc1ccc(Cl)cc1N1CCOCC1)C1CC1	-10.4%
CSc1nc(N)c2c(n1)N(C)C=NS2(=O)=O	28.6%
CCCCn1c(N)c(N(CC(C)C)C(=O)COC(=O)C2(c3ccccc3)CC2)c(=O)[nH]c1=O	-2.3%
O=C1CCCN1CC(O)CS(=O)(=O)Cc1ccc(Cl)cc1 (centres undefined)	-2.1%
COc1ccc2nc(NC(=O)CSc3nnc(C)n3N)sc2c1	-8.8%
O=C(N/N=C/c1ccncc1)NC1CCCCC1	-4.3%
Cc1ccsc1/C=C(\C#N)C(=O)NCc1cccnc1	-3.0%
CCC(Sc1ncnc2sc3c(c12)CCCC3)C(=O)OC(C)C (centres undefined)	3.4%
COC(=O)[C@H](Cc1ccccc1)NC(=O)N1CCN(c2ccccc2)CC1	4.9%
CCn1c(=O)cc(SCC(=O)NCc2ccc3c(c2)OCO3)c2ccccc21	10.3%
O=C(NCc1ccco1)c1nc2c(nnn2Cc2ccccc2Cl)c(=O)[nH]1	-17.1%
Cc1cnc([N+](=O)[O-])n1CCOC(=O)NC(=O)c1ccccc1	13.4%
CN1C(=O)c2cccc3c(S(=O)(=O)Nc4cccc(C(=O)O)c4)ccc1c23	-15.3%
O=C(Nc1nc2c(F)cc(F)cc2s1)C1CC1	2.1%
O=C(c1ccccc1)n1c(=S)nc2ccccn21	-4.0%
CN(Cc1ccccc1)C(=O)c1[nH]cnc1C(=O)NCC(=O)OCc1ccccc1	-2.2%

An excerpt of these results, with each value named.
O=C(c1ccccc1)n1c(=S)nc2ccccn21
  VDR inhibitor: -4.0%
CN(Cc1ccccc1)C(=O)c1[nH]cnc1C(=O)NCC(=O)OCc1ccccc1
  VDR inhibitor: -2.2%

Compound activity (PubChem BioAssay)
